Screens deposited in PubChem by National Center for Advancing Translational Sciences (NCATS).
GLA inh pH 4.5 = blocks human alpha-galactosidase A at pH 4.5; P06280; purified enzyme, 4-MU-alpha-Gal fluorescence, pH 4.5; activity change, negative = inhibition, % at 105 µM; 230,000 tested, under 10 active; inconclusive = small, poorly fitted or top-dose-only inhibition, or a rising curve; inactive = flat fitted curve, though single readings scatter; no compound was filed as active;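 note: 0% = full activity with enzyme and -100% = basal without enzyme; dose as in the result columns while the protocol names 77 µM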
Rango dissoc inh = inhibitors of RanGTP-induced Rango-importin beta complex dissociation; Biochemical FRET Rango-importin beta, RanGTP-induced dissociation; Potency, µM (top dose mostly 46.1 µM), without a hit: top-dose activity change, negative = inhibition; AID 540253; 0.071% of 340,000 active; O95149+P62826; active means falling FRET ratio curve, often poorly fitted, with flat reads before Ran was added; inconclusive means other falling curves, or compound fluorescence or quenching; inactive means flat or rising ratio curve;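 note: potency is the fitted concentration of half-maximal effect; % of control where 0% means no effect; nearly all actives have a fitted effect of over 45% in size; -100% = wells without RanGTP and RCC1; the record marks most hits as doubtful in a second field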
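Rango/importin beta premix (0.1/0.25 uM final), PBS + 1 mM DTT + 0.02% Tween-20 + 0.1% BSA; cpd 5 min RT; FRET pre-read; + RanGTP-RCC1 (0.6 uM Ran, 2 mM GTP, 0.2 uM RCC1); 45 min RT; FRET post-read, ex 430, em 486/530 nm.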
Rango complex inh = Rango-importin beta binding inhibition; Rango CFP/YFP FRET sensor + importin beta, 45 min; Potency, µM (highest dose often 92.2 µM), for the others: top-dose inhibition of complex formation; 0.031% of 340,000 active; AID 540263; Q14974; active = rising FRET ratio curve, often small or poorly fitted; inconclusive = mostly compound fluorescence or quenching in the first reads; inactive = flat curves in all reads;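 note: potency is the fitted concentration of half-maximal effect; 0% = DMSO wells and 100% = buffer wells lacking importin beta; nearly all actives have a fitted effect of over 15% in size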
Target sequence (Q14974 whole entry, looked up): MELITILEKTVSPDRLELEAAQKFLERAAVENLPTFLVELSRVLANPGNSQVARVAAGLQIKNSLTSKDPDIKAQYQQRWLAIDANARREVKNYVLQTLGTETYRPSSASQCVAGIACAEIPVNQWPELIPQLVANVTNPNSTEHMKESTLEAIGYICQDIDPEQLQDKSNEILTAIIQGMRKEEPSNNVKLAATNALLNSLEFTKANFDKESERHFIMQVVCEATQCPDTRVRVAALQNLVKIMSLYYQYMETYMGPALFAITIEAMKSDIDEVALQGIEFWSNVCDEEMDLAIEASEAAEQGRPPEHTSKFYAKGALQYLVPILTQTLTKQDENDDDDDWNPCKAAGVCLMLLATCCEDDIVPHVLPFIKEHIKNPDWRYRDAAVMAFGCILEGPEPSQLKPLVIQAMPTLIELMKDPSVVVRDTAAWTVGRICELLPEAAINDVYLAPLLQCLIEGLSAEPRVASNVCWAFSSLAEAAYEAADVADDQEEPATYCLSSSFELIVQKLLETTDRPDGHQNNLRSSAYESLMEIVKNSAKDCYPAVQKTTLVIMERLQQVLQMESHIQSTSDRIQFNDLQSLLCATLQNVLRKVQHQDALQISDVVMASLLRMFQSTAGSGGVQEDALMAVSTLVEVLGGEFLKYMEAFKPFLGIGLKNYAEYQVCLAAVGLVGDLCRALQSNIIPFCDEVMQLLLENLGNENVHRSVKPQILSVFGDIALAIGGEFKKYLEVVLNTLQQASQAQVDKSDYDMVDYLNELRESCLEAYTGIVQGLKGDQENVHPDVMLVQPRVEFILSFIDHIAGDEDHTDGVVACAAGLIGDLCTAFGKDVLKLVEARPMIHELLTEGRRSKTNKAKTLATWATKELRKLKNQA
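FRET biosensor (snurportin 1 IBB flanked by EYFP and cerulean), 50 nM, with compound 5 min, then 0.125 microM importin beta in PBS, 1 mM DTT, 0.02% Tween-20, 0.1% BSA. CFP/YFP ratio read after 45 min at room temperature; pre-read flags interference.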
miR-21 FLuc = miR-21 reporter, rising signal | AID 2288 | HeLa miR-21 FLuc reporter, luciferase, 48 h | 340,000 tested, under 10 active | Potency, µM (doses to about 38.3 µM), for inactives: at the top dose reporter change, positive = more light; active = well fitted rising curve with a large enough effect; inconclusive = small, poorly fitted or top-dose-only effect; inactive = no such curve, though single readings can be large or run the other way;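 note: % of control where 0% means no effect; miR-21 action dims this reporter so a rising signal means less miR-21 action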
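HeLa miR-21-FLuc reporter line, endogenous miR-21; 2000 cells/well in DMEM/10% FBS; compound titration up to ~40uM final, 48 h, 37 degree Celsius; luciferase detection reagent, 15 min lysis, CCD luminescence.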
* = called active by the depositor; ? = inconclusive; . = no result given; & = joins results of further samples. This is a subset; count on the stated rates, not on these rows.

no.	compound	GLA inh pH 4.5	Rango dissoc inh	Rango complex inh	miR-21 FLuc
1	O=C(COC(=O)Cn1cnc2ccccc21)Nc1cccc([N+](=O)[O-])c1	3	?	-2.4%	5%
2	Cc1sc2ncn(CC(=O)NCCCC(=O)N3CCC(C(N)=O)CC3)c(=O)c2c1C	.	-27%	?	4%
3	O=C(CSc1cccc[n+]1[O-])NC1CCCCC1	.	-20%	-2.2%	.
4	CCOC(=O)c1c(C)c(C(=O)N2CCCCCC2)c(C)n1CC	5	-11%	-2.9%	-1%
5	COc1ccc(/C=N/NC(=O)c2cc(-c3ccc(C)cc3C)nc3ccccc23)cc1COC(C)=O	3	4%	-1.0%	0%
6	CNc1ccn(C2CCCO2)c(=O)n1 (centres undefined)	2	-5%	1.1%	-2%
7	C=CCC[C@@H](Cc1ccc(F)cc1)C(=O)OCCNC(=O)[C@@H](CC=C)CC(=O)N[C@H](CO)Cc1ccccc1	.	-3%	1.5%	.
8	O=C(CCCn1cnc([N+](=O)[O-])n1)Nc1ccc(F)c(Cl)c1	6	0%	2.4%	1%
9	Cc1cc(/C=C2/C(=O)NN(c3ccccc3)C2=O)c(C)n1-c1ccc(O)cc1	-11	-2%	-1.0%	23%
10	Cc1cc(Cl)c(S(=O)(=O)NC(C)C)cc1OCC(N)=O	-2	-10%	-0.2%	0%
11	CC1(C)C2CCC1(C)C(OC(=O)CCn1ccnc1)C2 (centres undefined)	1	2%	-0.6%	-16%
12	CCCN(CCO)Cc1ccc(F)c(Br)c1	0	0%	-5.3%	-3%
13	N/C(=N\OC(=O)CCn1cccc(C(F)(F)F)c1=O)c1ccc(OC(F)(F)F)cc1	9	-12%	3.4%	3%
14	O=C1C2=C(c3ccccc31)[N+](=O)C1CCCCC1N2[O-] (centres undefined)	4	2%	-0.4%	-33%
15	O=C(O)CC(SCC(=O)Nc1ccc(Br)cc1)C(=O)O (centres undefined)	2	-13%	7.0%	0%
16	Fc1ccc(CCNc2ncnc3[nH]ncc23)cc1	.	0%	-3.3%	.
17	COc1ccc(NC(=O)Cn2nnc(C(=O)NCCc3ccc(OC)c(OC)c3)c2N)cc1	2	15%	-0.9%	-4%
18	CC(C)C(C(=O)NCC1CCCO1)N(C(=O)CNS(=O)(=O)c1ccccc1)C1CCCCC1 (centres undefined)	.	27%	1.8%	-3%
19	CCN(CC(=O)Nc1c(F)cccc1F)C(=O)c1cccc(S(=O)(=O)N(C)c2ccccc2)c1	.	12%	1.4%	.
20	N#CCSc1ccsc1C(=O)Nc1ccc(F)cc1	-2	-15%	-0.3%	-25%
21	Cc1ccc(NC(=O)Cc2ccccc2)c(C)c1	1	.	.	-5%
22	CC(C)n1c(=S)[nH]c2cc(Cl)ccc21	1	-3%	0.1%	0%
23	COc1cc2c(cc1OC)C(C)N(Cc1ccc3c(c1)OCO3)CC2 (centres undefined)	-8	0%	-1.1%	16%
24	CCc1ccc(NC(=O)CSc2nc(O)cc(=O)n2C2CCCC2)cc1	11	-6%	0.0%	-3%
25	COc1cccc(OCC(=O)N2CCCc3ccccc32)c1	.	-2%	-2.0%	-31%
26	c1ccn2cc(-c3ccc4c(c3)OCO4)cc2c1	10	?	?	-14%
27	COc1cccc(N(CC(=O)NCC2CCCO2)C(=O)CNS(=O)(=O)c2ccccc2)c1 (centres undefined)	3	?	3.4%	-2%
28	CC(=O)NNc1cc(C)nc(N)n1	16	1%	1.3%	1%
29	CC(C)CCNC(=O)NC(=O)COC(=O)CCN=C1NS(=O)(=O)c2ccccc21	-5	4%	-0.1%	-2%
30	Cc1cc(S(=O)(=O)N2CCCC(C)C2)ccc1-n1cnnn1 (centres undefined)	.	7%	5.4%	1%
31	O=C(N/N=C\c1ccncc1)c1ccccc1O	-3	2%	0.8%	-22%
32	CCCCN(C(=O)c1ccccc1OCc1ccc(F)cc1)c1c(N)n(CC(C)C)c(=O)[nH]c1=O	.	-3%	1.7%	0%
33	COc1ccc(OCCOC(=O)Nc2ccccc2)cc1	-11	-1%	-1.6%	-17%
34	O=C1NC(=O)/C(=C/c2ccc(N3CCOCC3)o2)N1	-2	?	?	2%
35	Cc1ccc2c(c1)C(=O)c1c(C(=O)O)cccc1-2	8	22%	-0.9%	-2%
36	COCCN=c1scc(-c2cc(OC)ccc2OC)n1/N=C/c1c[nH]c2ccccc12	-15	-4%	-0.1%	4%
37	O=C(CSc1nc2ccccc2c(=O)n1CCC(=O)N1CCN(c2ccccc2)CC1)NCC1CCCO1 (centres undefined)	-11	10%	4.3%	-5%
38	Cc1ccn2c(c1)nc(=O)c1cc(S(=O)(=O)N3CCC(C)CC3)ccc12	.	15%	2.4%	0%
39	CCN(CC(=O)Nc1ccc2c(c1)OCCO2)C(=O)CCc1ccc(OC)cc1	.	-18%	1.6%	.
40	Cc1cc(C)c[n+](-c2nc3ccccc3nc2C(=C=[N-])C#N)c1	3&-1	?	?	-19%&-14%
41	Cn1nc(C(=O)NNc2c(F)c(F)cc(F)c2F)c2ccccc2c1=O	2	-18%	1.3%	8%
42	CCc1ccc(N(CC)C(=O)c2cn(C)c(=O)c3ccccc23)cc1	.	-15%	-0.7%	5%
43	CCN(CC)CCC(O)(c1ccccc1)C1CCCCC1 (centres undefined)	.	11%	1.9%	0%
44	COc1ccccc1NC(=O)CN(c1ccccc1C)S(C)(=O)=O	.	7%	3.5%	0%
45	Cc1cccc(NC(=O)c2oc3c(c2C)C(=O)CC(C)(C)C3)n1	0	1%	6.9%	-32%
46	COc1ccc(NC2=NC3(CCCCC3)N=C(N)N2)cc1	4	2%	0.3%	3%
47	CC(Sc1nc(C2CC2)n(-c2ccccc2)n1)C(=O)c1c(N)n(C)c(=O)n(C)c1=O (centres undefined)	.	-13%	-3.0%	-5%
48	Fc1ccccc1CN1CCCN(C(=S)Nc2cccc(Cl)c2)C1	-3	8%	0.3%	4%
49	CCOc1ccc(Cl)cc1S(=O)(=O)NCc1cccnc1	-7	1%	2.4%	-4%
50	CCOC(=O)c1sc(C)c2c1NC(C)(c1cccc3ccccc13)NC2=O (centres undefined)	4	-12%	2.7%	-2%
51	O=C(c1ccc(Oc2ccccc2)cc1)C1CCCN(C(=O)c2cnccn2)C1 (centres undefined)	-4	1%	-3.7%	11%
52	CNC(=S)N/N=C(\C)c1ccc(N2CCOCC2)cc1	-5	-7%	0.4%	21%
53	COc1cc(NC(=O)NNC(=O)c2cc3occc3n2C)cc(OC)c1OC	.	1%	0.1%	2%
54	CCCN(CCC)CCCNC(=O)c1cc2c(=O)[nH]c3ccccc3c2s1	.	-6%	6.8%	-1%
55	CC1(C)C(c2ccco2)=[N+]([O-])C2(CCCCC2=O)N1O (centres undefined)	-4	2%	-0.3%	-6%
56	COc1cccc(-c2noc(CCC(=O)N3CCN(c4cc(C)ccc4C)CC3)n2)c1	.	-2%	0.5%	.
57	O=C(O)/C=C/C(=O)Nc1ccc(S(=O)(=O)Nc2nccs2)cc1	.	-11%	-2.3%	1%
58	Cn1c(=N)n(CC(=O)c2cccs2)c2ccccc21	4	-2%	-0.1%	-22%
59	CC(=O)c1ccc(NC(=O)CN2CCN(S(=O)(=O)c3ccc4ccccc4c3)CC2)cc1	.	1%	?	.
60	Cc1cccc(NC(=O)c2sc3nc(N)c(C#N)cc3c2N)c1	8	-11%	?	-73%

(continued)
no.	compound	GLA inh pH 4.5	Rango dissoc inh	Rango complex inh	miR-21 FLuc
61	O=C(NCc1ccccn1)c1cc(-c2ccccc2)nc2ccccc12	-1	1%	-1.2%	-5%
62	Cc1nn(-c2ccccc2)c2c1/C(=N/O)CC(C)(C)C2	5	5%	0.0%	-8%
63	O=C(Cn1nc(C(F)(F)F)c2c1CCCC2)NCc1ccco1	-8	0%	1.1%	-5%
64	O=C(Nc1ccc(-c2nc3ccccc3s2)cc1)c1cc(-n2cnnc2)ccc1Cl	12	0%	1.9%	22%
65	CC(C)CC(NS(=O)(=O)c1ccc2c(c1)oc(=O)n2C)C(=O)N1CC=C(c2ccccc2)CC1 (centres undefined)	-1	-29%	-2.0%	4%
66	CSCCC(NC(=O)c1ccccc1Cl)C(=O)NNC(=O)c1ccncc1 (centres undefined)	.	-9%	-1.5%	.
67	COc1ccc(Br)cc1CN(C)CC(=O)Nc1c(Cl)ccc(C)c1Cl	-12	1%	2.8%	-10%
68	O=C(COC(=O)/C=C/c1cccc(Cl)c1)NCc1cccs1	.	0%	-3.9%	.
69	COc1ccc(-n2c(=S)[nH]c3cc(C(=O)NCCCN4CCCC4=O)ccc3c2=O)cc1	-1	4%	4.5%	-4%
70	COc1ccc(C(=O)N2CCN(c3ccc(C)cc3)CC2)cc1OC	2	13%	2.5%	-14%
71	COC(=O)C1(C(=O)OC)Sc2ccccc2C1=O	4	1%	2.3%	-8%
72	COc1ccccc1N1CCN(C(=O)C2CCN(S(=O)(=O)c3ccccc3F)CC2)CC1	.	-7%	-2.4%	.
73	Cc1ccc(CCNC(=O)CC2Oc3ccc(C)cc3NC2=O)cc1 (centres undefined)	10	32%	-4.0%	-8%
74	Cc1cc(C)n(CC(=O)N/N=C/c2ccc(C)o2)n1	-13	0%	4.9%	-1%
75	COc1ccc(C(=O)NC2(C(F)(F)F)C(=O)N(Cc3ccco3)C3=C2C(=O)CC(C)(C)C3)cc1OC (centres undefined)	-5	?	-4.4%	-15%
76	CCN(C(=O)COC(=O)Cc1cccc2ccccc12)C1CCS(=O)(=O)C1 (centres undefined)	.	-8%	2.7%	.
77	CCOC(=O)c1ccc(N=CC2=C(O)CC(C)(C)CC2=O)cc1	-1	-3%	1.3%	-10%
78	Cc1cc(NC(=O)c2ccc3c(c2)C(=O)N(CC(C)C)C3=O)no1	6	5%	?	-5%
79	COCCCn1c(C(=O)NCCN2CCOCC2)cc2c(=O)n3cccc(C)c3nc21	.	-2%	-2.7%	-5%
80	Nc1ncnc2nc(SCc3ccc(Cl)cc3Cl)[nH]c12	5	1%	4.8%	-13%

Pulled one by one from the entries so far:
no.	compound	GLA inh pH 4.5	Rango dissoc inh	Rango complex inh	miR-21 FLuc
72	COc1ccccc1N1CCN(C(=O)C2CCN(S(=O)(=O)c3ccccc3F)CC2)CC1	.	-7%	-2.4%	.
65	CC(C)CC(NS(=O)(=O)c1ccc2c(c1)oc(=O)n2C)C(=O)N1CC=C(c2ccccc2)CC1 (centres undefined)	-1	-29%	-2.0%	4%

Next section.
no.	compound	GLA inh pH 4.5	Rango dissoc inh	Rango complex inh	miR-21 FLuc
81	Cc1ccc(-n2c(Cc3cccn3C)nnc2SCC(=O)NCc2ccco2)cc1	3	-14%	-4.7%	2%
82	Cc1ccc(-n2c(C)cn(C(=O)c3ccccc3)c2=S)cc1	1	-10%	3.1%	-24%
83	O=C(Nc1ccccc1NC(=O)c1ccco1)c1ccco1	0	3%	0.3%	-6%
84	O=C(NCc1cccs1)C1CCCN1C(=O)NC1CCCCC1 (centres undefined)	3	6%	-3.2%	-5%
85	COc1ccc(N2CCN(C(=O)COC(=O)CCc3ccccc3OC)CC2)cc1	.	0%	2.7%	.
86	CCOC(=O)c1c(S(=O)(=O)NCc2ccc(OC)cc2)c(C)n(C)c1C	.	?	7.5%	-4%
87	COc1ccc(N2CCN(C(=O)CN3C(=O)NC(c4ccc(OC)cc4)(c4ccc(OC)cc4)C3=O)CC2)cc1	.	-15%	0.2%	1%
88	COCc1cc(=O)n2[nH]c(-c3ccccc3)cc2n1	3	-5%	6.0%	-34%
89	COc1ccc2c(c1)OC[C@H]1[C@H]2N2C(=O)c3ccc(C)cc3NC(=O)[C@@]2(C)[C@H]1c1ccccc1	.	-8%	-0.2%	.
90	O=c1[nH]cc(C(F)(F)F)cc1NS(=O)(=O)c1ccccc1[N+](=O)[O-]	-1	-18%	?	1%
91	Cc1ccc(S(=O)(=O)N(C)C[C@@H]2Oc3ccc(NC(=O)Nc4cccc5ccccc45)cc3C(=O)N([C@H](C)CO)C[C@H]2C)cc1	.	18%	-0.8%	.
92	COC(=O)C(Cc1ccc(O)cc1)NC(=O)CCOc1ccc(OC)cc1 (centres undefined)	.	1%	1.9%	-4%
